Bioassay records from PubChem BioAssay.
VDR inh = vitamin D3 receptor (human) inhibition; Potency, µM, without a hit: max response, negative = inhibition, actives largely listed as inhibitors; VDR-SRC2-3 peptide fluorescence polarization, 2 h; actives 0.93% (n = 400,000); P11473; active = well fitted inhibition curve with a large enough effect; inconclusive = small, poorly fitted or top-dose-only effect, or another doubt; inactive = no such curve, though single readings can be large or run the other way; note: series mostly up to about 120 µM
Target sequence (P11473 whole entry, looked up): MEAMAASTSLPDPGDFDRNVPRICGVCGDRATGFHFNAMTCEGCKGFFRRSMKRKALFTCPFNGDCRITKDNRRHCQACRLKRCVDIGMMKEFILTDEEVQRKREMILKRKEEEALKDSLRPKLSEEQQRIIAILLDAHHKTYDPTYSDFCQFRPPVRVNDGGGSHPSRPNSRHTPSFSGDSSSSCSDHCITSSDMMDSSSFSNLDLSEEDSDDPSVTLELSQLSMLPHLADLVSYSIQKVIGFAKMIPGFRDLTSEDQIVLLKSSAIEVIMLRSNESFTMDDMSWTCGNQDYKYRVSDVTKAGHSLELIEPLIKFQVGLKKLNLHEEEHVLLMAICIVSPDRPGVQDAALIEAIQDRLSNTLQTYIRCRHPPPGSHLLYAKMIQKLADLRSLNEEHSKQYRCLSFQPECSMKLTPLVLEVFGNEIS
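Fluorescence polarization assay measuring small-molecule disruption of VDR binding to the coregulator peptide SRC2-3. Compounds were pin-transferred (23 nl) into the reagent mix and incubated 2 h at room temperature before reading.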
An asterisk follows results filed as active; ? = inconclusive; & = joins results of further samples; [ ] = remark or other dose. % is set by controls: 0 for no effect and ±100 for the full control effect; potency is the fitted concentration of half-maximal effect.

canonical_smiles	VDR inh
CCOc1ccc(-c2nnn(CC(=O)c3cc(OC)ccc3OC)n2)cc1	8%
CCOc1ccc(NS(=O)(=O)c2cc3c(cc2C)N(C)CCO3)cc1	-7%
Nc1cc(N)nc(SCc2cccc(F)c2)n1	2%
Cc1cc(NC(=O)COC(=O)c2ccc(C)c(C)c2)no1	2%
Cc1cc(NC(=O)c2cccc(N3C(=O)CCC3=O)c2)no1	4%
CN(C)c1nc(N)nc(/C(C#N)=C/C2CC3C=CC2C3)n1 (centres undefined)	3%
Clc1ccc(-c2cn3cccnc3n2)cc1Cl	-4%
COc1ccc(C2CC(=O)N(Cc3ccccc3C)c3c2c(C)nn3-c2nc(C)cc(C)n2)c(OC)c1 (centres undefined)	5%
CN(C)CCCNC1=CC(=O)OC12CCCCC2	9%
CC(C)c1ccc(OCC(=O)N(c2ccccn2)C2CCCCC2)cc1	8%
COC(=O)CN=Cc1c(O)n(-c2ccc(Cl)cn2)c(=O)c2ccccc12	5%
CC(C)(C)NC(=O)CSc1nc(-c2ccc(F)cc2)cs1	4%
O=C(NC1CCCC1)C(c1ccccn1)N(C(=O)c1csnn1)c1ccccc1F (centres undefined)	-7%
CCOC(=O)N1CCN(c2cc(C)nc3nc(C)nn23)CC1	6%
COc1cc(CNc2nc(C)c([N+](=O)[O-])c(C)c2C#N)cc(OC)c1	2%
CCOC(=O)N1CCN(S(=O)(=O)N2CCCC(C(=O)NCCCN3CCCCC3)C2)CC1 (centres undefined)	15%
COc1ccc(-n2nnc(-c3nc(-c4cccs4)no3)c2N)cc1	-5%
O=C1CCCc2c1cc(C(=O)O)c(=O)n2-c1ccccc1	-4%
CC(SC(=S)N1CCCC1)C(=O)O (centres undefined)	7%
O=C(CSCc1ccc(F)cc1)N1CCc2c([nH]c3ccccc23)C1c1ccc(Cl)cc1 (centres undefined)	10%
Cn1c(CSc2nc3ccccc3s2)nnc1SCC(=O)NCc1ccccn1	-10%
COc1ccc(C(=O)c2ccc(OC)c(N)c2)cc1N	5%
CC(=C/c1ccccc1)/C=N/Nc1nc(N2CCCCC2)nc(N2CCCCC2)n1	-27%
COc1ccc(C(=O)Nc2cc(OC)nc(OC)n2)cc1	-1%
CCOc1ccccc1NC(=O)c1oc2ccccc2c1NC(=O)C1CCCO1 (centres undefined)	-10%
COc1cc(C(=O)Nc2c(C)cc(C)cc2C)c([N+](=O)[O-])cc1OC	6%
COC(=O)c1cc(NC(=O)COC(=O)C2COc3ccccc3O2)cc(C(=O)OC)c1 (centres undefined)	-12%
Cc1cc(C(F)F)n2nc(C(=O)Nc3ccccc3F)nc2n1	5%
O=[N+]([O-])c1ccc(N2CCCCC2)nc1	9%
O=C1C2C3C=CC(C2C(=O)N1c1cccc(O)c1)C1C2C(=O)N(c4cccc(O)c4)C(=O)C2C31 (centres undefined)	0%
Cn1c(=O)c([N+](=O)[O-])c(-n2ccnc2)c2ccccc21	20µM*
C=CCC(Nc1ccc(OC)cc1)(C(=O)OCC)c1ccccc1 (centres undefined)	-3%
O=C1C=C(c2ccccc2Oc2ccccc2)C[C@@H](c2ccc3c(c2)OCO3)C1	-24%
COCCn1c(=NC(=O)c2ccccc2[N+](=O)[O-])sc2cc(S(C)(=O)=O)ccc21	-24%
CCn1c(SCC(=O)NCc2ccc3c(c2)OCO3)nc2c(c1=O)SCC2	-7%
CC(C)CC(NC(=O)C1CCC(=O)N1)C(=O)NC(CC(C)C)C(=O)N1CCCC1C(N)=O (centres undefined)	-12%
COc1ccc(S(=O)(=O)Nc2ccc(-c3cn4ccsc4n3)cc2)cc1C	-5%
CC(=O)N/N=C(\C)C1COc2ccccc2O1 (centres undefined)	10%
CSc1ccccc1NC(=O)CN(Cc1ccc(Cl)cc1)S(C)(=O)=O	11%
Cn1c(-c2ccncc2)nc2ccccc21	-7%
CN(CC(=O)Nc1ccccc1Br)C(=O)CNC(=O)c1ccc(Oc2ccccc2)cc1	-6%
COCCCNc1ncnc2c1c(-c1ccccc1)cn2-c1ccc(C)c(Cl)c1	4%
O=S1(=O)N=C(N(Cc2cccs2)c2ccc(O)cc2)c2ccccc21	-6%
CCN(CC)S(=O)(=O)c1ccc(S(=O)(=O)N(Cc2ccccn2)Cc2ccco2)cc1	-6%
CC(C)[C@H](NC(=O)N1CCC(Cc2ccccc2)CC1)C(=O)O	-5%
Cc1ccc(C#N)c(SCc2nnc(-c3ccc(Cl)cc3)o2)n1	2%
Cc1cc(Br)ccc1NC(=O)CNC(=O)CN(C)Cc1nc2ccccc2c(=O)[nH]1	2%
Cc1ccc(OCC(=O)Nc2ccc3[nH]c(=O)sc3c2)cc1	0%
COc1ccc2[nH]c3c(c2c1)CCN1C(=O)N([C@@H](C)C(=O)NCc2c(F)cccc2Cl)C(=O)[C@]31C	18%
CCSc1ncc(Cl)c(C(=O)Nc2c(C(=O)c3ccc(C)c(F)c3)oc3ccccc23)n1	22%
COC(=O)Nc1nc(C)c(C(=O)N(C)C)s1	10%
Cc1nc(N)nc(N)c1CCCc1ccc(Cl)c(Cl)c1	9%
O=C(CCS(=O)(=O)c1ccccc1)NNC(=O)CSc1ccccc1F	-5%
Cc1ccc(N2CC(C(=O)Nc3ccc(C)c(S(=O)(=O)N(C)C)c3)CC2=O)cc1 (centres undefined)	-6%
Cc1ccc(N(C(=O)CNC(=O)c2ccco2)C(C(=O)NC2CCCCC2)c2cccnc2)cc1C (centres undefined)	-4%
CCOC(=O)Cn1nc(C)c(NC(=O)COc2ccccc2[N+](=O)[O-])c1C	-7%
CCCc1cc2c(=O)c(-c3ccc4c(c3)OCCO4)c(C)oc2cc1OS(C)(=O)=O	10%
CSc1ccccc1NC(=O)C1C2CCC(C2)C1C(=O)O (centres undefined)	21%
CN(CCOc1ccccc1)C(=O)C1CCC(=O)N(CCN2CCOCC2)C1 (centres undefined)	-3%
N#Cc1ccc(/C=N/NC(=O)CCc2ccc(S(=O)(=O)N3CCOCC3)cc2)cc1	-7%

Molecules from the list above that contain a furan ring, fused or not (four):
canonical_smiles	VDR inh
CCOc1ccccc1NC(=O)c1oc2ccccc2c1NC(=O)C1CCCO1 (centres undefined)	-10%
CCN(CC)S(=O)(=O)c1ccc(S(=O)(=O)N(Cc2ccccn2)Cc2ccco2)cc1	-6%
CCSc1ncc(Cl)c(C(=O)Nc2c(C(=O)c3ccc(C)c(F)c3)oc3ccccc23)n1	22%
Cc1ccc(N(C(=O)CNC(=O)c2ccco2)C(C(=O)NC2CCCCC2)c2cccnc2)cc1C (centres undefined)	-4%

(more compounds)
canonical_smiles	VDR inh
O=C(CSc1nnc(-c2cccs2)n1Cc1ccco1)c1ccc2c(c1)OCO2	15%
Cc1cc(C)c(C(=O)/C=C/c2ccco2)c(=O)[nH]1	-14%
CC#CCCCC(=O)Nc1ccccc1C(=O)O	-14%
CCOc1ccc(Cn2c(CNS(=O)(=O)c3cccs3)nc3cccnc32)cc1	8%
COc1cc(OC)cc(C(=O)N[C@H](C(=O)OCC(=O)N2CCN(S(=O)(=O)c3ccc(C)cc3)CC2)C(C)C)c1	-8%
Cc1nc(N2CCOCC2)nc2c1CCCC2	-24%
O=S(=O)(c1ccc(Cl)cc1)c1nnn2c1nc(NCc1ccc3c(c1)OCO3)c1sccc12	5%
Cc1ccc(C2C(C(=O)c3cc4ccccc4o3)=C(O)C(=O)N2CCN(C)C)o1 (centres undefined)	-2%
CCCC(=O)N1c2ccc(-c3csc(N)n3)cc2CC1C (centres undefined)	14%
Cc1ccc2c(c1)N(C(C)C(=O)NCc1cccs1)C(=O)CO2 (centres undefined)	1%
Cc1c(C=Nc2ccc(S(=O)(=O)CCO)cc2)c(O)[nH]c(=O)c1C#N	-19%
COC(=O)c1nnn(-c2cccc(C)c2)c1N	-8%
CN(C)S(=O)(=O)c1cccc2c1C(=O)c1ccccc1C2=O	13%
Clc1ccc(Oc2nnnn2-c2ccccc2)cc1	4%
Cc1cc(C(=O)COC(=O)COc2ccc(C#N)cc2)c(C)n1C1CC1	-1%
CCOC(=O)C(=N/O)/C(C)=N/NC(=O)C(=O)Nc1ccc(Cl)cc1	0%
CCOC(=O)C1(Cc2ccccc2)CCN(Cc2cnc(N3CCOCC3)s2)CC1	18%
O=C(CCN1CCCCC1)Nc1cccc(Br)c1	0%
COC(C(=O)Nc1ccc(Br)cc1F)c1ccccc1 (centres undefined)	2%
CCn1c(O)c(N=NC(=O)Cn2ccc(C(F)(F)F)n2)c2ccccc21	-13%
Cc1ccc2nc(NCc3ccco3)c(C=NCc3ccco3)c(=O)n2c1	-1%
O=c1ccc2cc3c(-c4ccccc4)coc3cc2o1	11%
COC(=O)c1sccc1NC(=O)Nc1ccc(F)cc1	40%[activator]
Cn1c(-c2ccccc2)cc2ccccc21	5%
Cc1cccc(C)c1NC(=O)[C@H](C)N	-7%
CCOC(=O)c1cccc(-n2c(C)nc3ccccc3c2=O)c1	-5%
Cc1cc(C)cc(OCC(=O)NCc2nc(-c3ccccc3)no2)c1	11%
Cc1cc(C(=O)COC(=O)c2cc(Cl)c(O)c(Cl)c2)c(C)n1C	-5%
O=C(N/N=C/C(Br)=C/c1ccccc1)NC1CCCCC1	-21%
COc1nc(OC)nc(N2CCC(C(=O)Nc3cccc4c3CCCC4)CC2)n1	10%
O=C(NC(=S)Nc1c(Cl)ccc2nsnc12)c1ccco1	?
COc1ccc(-n2c3c(c(=O)[nH]c2=O)C(NC(=O)c2ccccc2Cl)(C(F)(F)F)C(=O)N3)cc1 (centres undefined)	-4%
O=C(c1csc2c1CCCC2)N1CCN(c2ncccn2)CC1	7%
CN(C(=O)c1cccc(NC(=O)Cc2ccc(NC(=O)C3CCCN(C(=O)C4CCC4)C3)cc2)c1)C1CCCC1 (centres undefined)	-18%
COCCNc1nc2c(c(=O)n(Cc3cccc(Br)c3)c(=O)n2C)n1C	12%&3%
CCN(CC)CCN1C(=O)c2ccccc2NC1c1ccccc1F (centres undefined)	-3%
Cc1ccc(CNC(=O)c2ccc(Cn3c(=O)c4ccccc4n(CC(=O)Nc4ccc(C)cc4)c3=O)cc2)cc1	-8%
COc1ccc(NC(=O)CSc2nc(-c3ccccc3)c3ccccc3n2)cc1	11%
CN(CC(=O)Nc1ccccc1Br)C(=O)CN1CCN(c2ccccc2Cl)CC1	3%
O=C(CN1C(=O)C2CCCCC2C1=O)Nc1cccc([N+](=O)[O-])c1 (centres undefined)	-13%

The final 4 entries of the part before lead into the next.
canonical_smiles	VDR inh
Cc1ccc(CNC(=O)c2ccc(Cn3c(=O)c4ccccc4n(CC(=O)Nc4ccc(C)cc4)c3=O)cc2)cc1	-8%
COc1ccc(NC(=O)CSc2nc(-c3ccccc3)c3ccccc3n2)cc1	11%
CN(CC(=O)Nc1ccccc1Br)C(=O)CN1CCN(c2ccccc2Cl)CC1	3%
O=C(CN1C(=O)C2CCCCC2C1=O)Nc1cccc([N+](=O)[O-])c1 (centres undefined)	-13%
COc1ccc(NC(=O)Cc2nnc(SCC(=O)Nc3ccccc3)n2C)cc1	-4%
CCOC(=O)c1ccc(NC(=O)c2nc(SC(C)C)ncc2Cl)cc1	1%
O=C(O)/C=C/C(=O)Nc1cccc2cccnc12	-19%&-8%
CC(C)Cn1c(-c2csc3c2CCCC3)n[nH]c1=S	-15%
Cc1c(C(=O)c2ccccc2)c2ccccn2c1CCC#N	-3%
Cn1nccc1C(=O)OCC(=O)Nc1ccccc1	-14%
COc1ccc(C(=O)CCNc2ccc(F)cc2)cc1	7%
Cc1ccc(C)c(S(=O)(=O)N2CCCC2CNC(=O)C(=O)NCc2ccccc2C)c1 (centres undefined)	3%
O=C(NCc1ccc(F)cc1)c1cc2ccccc2o1	5%
Cn1c(SCC(=O)N/N=C/c2ccco2)nc2ccccc21	-1%
CCc1ccccc1NC(=O)Cn1nnc(C(=O)NCc2ccccc2Cl)c1N	-1%
Cc1ccccc1NS(=O)(=O)c1ccc(NC(=O)c2nc3ncccn3n2)cc1	-3%
Cc1n[nH]c(=O)nc1NC(C)c1ccccc1 (centres undefined)	-2%
CCC(NC(=O)c1ccc2nc(Cc3ccc(OC)cc3)oc2c1)c1ccncc1 (centres undefined)	-2%
O=C(NC(Cc1ccccc1)C(=O)O)/C(=C\c1ccco1)NC(=O)c1ccco1 (centres undefined)	-6%
Nc1nc(-c2cc(-c3ccccc3)no2)cs1	-19%
O=C(NC1CCCc2ccccc21)c1ccc(S(=O)(=O)N2CCOCC2)cc1 (centres undefined)	-17%
CCOc1ccc(OCC)c(NC(=O)CN2CCN(c3cc(C)ccc3C)CC2)c1	-2%
CC1CCCCN1Cc1c(C#N)c2ccccc2n1C (centres undefined)	-2%
CCN(CC)C(=O)C1CCN(CC2CC=CCC2)CC1 (centres undefined)	16%
C=CCn1c(COc2ccccc2)nnc1SCC(=O)N/N=C/c1ccc(C)cc1	6%
CN(C)c1nc(Oc2ccc(C(=O)OCC(=O)Nc3ccccc3)cc2)nc(N(C)C)n1	2%
COc1ccc([N+](=O)[O-])cc1NC(=O)Cn1ccsc1=N	-3%
COc1ccc(N(CC(=O)Nc2ccccc2F)S(=O)(=O)c2ccc(OC)c(OC)c2)cc1	-4%
CC(=O)c1cc(CN2CCC(n3nccc3NC(=O)c3ccccc3Cl)CC2)cs1	4%
O=C(NNC(=O)C1CC(c2cccs2)=NO1)Nc1ccccc1 (centres undefined)	6%
Cc1cc(C)c2nc(NNC(=O)c3ccc(S(=O)(=O)N4CC(C)CC(C)C4)cc3)sc2c1 (centres undefined)	-8%
O=C(Cn1cnc2onc(-c3ccc(F)cc3)c2c1=O)Nc1ccc(F)c(Cl)c1	16%

Some of the compounds tested; the hit share may differ from the screen's.
